MT1-MMP act inh: inhibitors of human MT1-MMP activation; P50281; HT1080 RFP-PRO-GFP cells, GFP/RFP ratio fluorescence, overnight; percent of plate control window, DMSO zero; GFP/RFP ratio change, % at 20 µM; 360,000 compounds, 0.061% hits; AID 651647;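 active means GFP/RFP ratio change of at least 30% with cell ATP level not reduced by more than half and red fluorescence within 50% of control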; further: strong numbers were not always called active
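Material – HT1080 RFP-PRO-GFP cells · Control set – DMSO wells and RFP-L50D-GFP cells · Incubation – overnight cell settling, then overnight compound exposure, 37 °C, 5% CO2 · Compound dosing – single-point 20 µM compound, 1% DMSO · Read-out – GFP/RFP fluorescence ratio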
Rce1 inhib: inhibitors of yeast Ras-converting enzyme | Q03530 | yeast membranes, quenched prenylated peptide cleavage fluorescence | calls only | 290,000 compounds, 0.27% hits | AID 2563;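 active means fall in fluorescence gain of 50% or more versus controls, with final raw signal at or below 3038400; inconclusive means same 50% fall but final raw signal above 3038400; inactive means fall in fluorescence gain under 50%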;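 further: plate controls were neutral control wells for no effect and wells lacking membranes for full effect; tested at 10 µM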
Target sequence (Q03530 whole entry, looked up): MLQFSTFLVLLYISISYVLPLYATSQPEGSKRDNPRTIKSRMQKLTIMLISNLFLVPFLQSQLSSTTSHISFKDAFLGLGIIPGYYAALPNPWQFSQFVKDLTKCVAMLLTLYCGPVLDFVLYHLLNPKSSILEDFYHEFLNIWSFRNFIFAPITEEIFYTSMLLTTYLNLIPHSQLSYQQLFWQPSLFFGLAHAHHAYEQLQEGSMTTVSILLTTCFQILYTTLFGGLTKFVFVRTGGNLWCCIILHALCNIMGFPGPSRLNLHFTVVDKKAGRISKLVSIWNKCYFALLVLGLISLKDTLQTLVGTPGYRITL
Env fusion inh: blocks HIV Env-driven cell-cell fusion. inhibition, % at 12.3 µM. HeLa-JRFL Env/CEM21 cell fusion, luciferase. AID 651610. 360,000 compounds, 1.1% hits;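 active means mean replicate inhibition score of at least 50 and every replicate individually at or above 50; inconclusive means only one of the two criteria met; inactive means mean below 50 and not all replicates reaching 50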;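 further: 0% = plate neutral controls and 100% = maraviroc near 300 nM; one replicate is shown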
PABP polyA inh: blocks human PABP binding to poly(A) RNA; P11940; fluorescence polarization; inhibition, % at 35 µM; 290,000 compounds, 1% hits; AID 2014;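 active means 50% or more with normal probe brightness, or confirmed in later tests; inconclusive means above 50% with abnormal brightness, or retests that disagree; inactive means below 50% or failed in later tests; about a fifth of its hits are not listed in these tables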;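 further: calls also rest on retests at 20 µM and on dose response follow-up; controls were probe without protein and protein plus probe with vehicle; some compounds called inactive have numbers as strong as hits; many hits fall short of the cut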
CSC inhib: cancer stem cell inhibition | cancer stem cell-like cells viability, luminescence | inhibition, % at 7.5 µM | 300,000 compounds, 1.1% hits;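 active means mean at 75% or more and at least half the replicates too; inconclusive means mean and replicates disagree; tested in HMLE shEcad cells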;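 further: 0% = median of negative and 100% = median of positive control wells; the first replicate is given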
eIF4H inh: inhibitors of RNA binding by human eIF4H; Q15056; eIF4H fluorescence polarization binding assay; inhibition, % at 35 µM; 290,000 compounds, 0.94% hits;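 active means 50% or more with normal probe brightness, or confirmed in later tests; inconclusive means above 50% with abnormal brightness, or retests that disagree; inactive means below 50% or failed in later tests; about a fifth of its hits are not listed in these tables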;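 further: calls also rest on retests at 20 µM and on dose response follow-up; 0% = protein and probe with vehicle and 100% = probe without protein; strong numbers were not always called active; many hits fall short of the cut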
UUG fidelity: modulators of start codon recognition fidelity in yeast | S. cerevisiae UUG-firefly luciferase reporter, luminescence/redox ratio | activity score, % at 18.7 µM | 350,000 compounds, 0.13% hits;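 active means replicate mean at a twofold rise or more, about +100% in these data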;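 further: firefly luciferase made from a UUG start codon reports start codon fidelity; reporter light over untreated wells divided by growth signal over untreated wells; some hits fall short of that in this replicate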
eIF4H inh retest: further read-out of eIF4H inh, marked with its call; inhibition, %; compound at 20 µM; confirmation average;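 mean of two retest wells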
PABP polyA inh retest: recorded beside PABP polyA inh, whose call it bears; inhibition, %; compound at 20 µM; confirmation repeats;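 mean of two retest wells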
MT1-MMP act inh RFP: second read-out of MT1-MMP act inh, no call of its own (marks repeat the call); RFP signal change, %; measured here: RFP expression control read;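 0 = vehicle wells; hits needed this value within 50% of zero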
Starred values were filed as active, the others as inactive; i = inactive; ? = inconclusive; / = not tested or not shown. Only part of the results is shown; the hit share may differ from the screen's.

SMILES	MT1-MMP act inh	MT1-MMP act inh RFP	Rce1 inhib	Env fusion inh	PABP polyA inh	CSC inhib	eIF4H inh	UUG fidelity	others
CCN(CC)S(=O)(=O)c1ccc(OC)c(NC(=O)Cc2cccs2)c1	-2	2	i	18	10	-20	62	/	eIF4H inh retest=7;PABP polyA inh retest=10
Cc1nc2ccc(C(=O)N3CCCC(CO)(Cc4ccc(F)cc4F)C3)cc2nc1C (centres undefined)	0	-3	i	2	7	11	-15	-5
O=C(c1ccc(Cl)c([N+](=O)[O-])c1)N(Cc1ccc(Cl)cc1)C1CCS(=O)(=O)C1 (centres undefined)	1	2	/	12	-8	6	0	/
CCN(CC)C(=O)c1csc(Nc2ccc(C)cc2)n1	3	4	i	-6	4	1	2	-22
Cc1ccc(NC(=O)CCc2c(C)nc3ncnn3c2C)nc1	1	5	i	-30	2	-10	5	-21
O=C(Nc1ccccc1N1CCN(C(=O)c2ccccc2)CC1)c1cc2ccccc2o1	-19	-15	/	0	2	-2	9	-15
Cc1ccc(S(=O)(=O)N2CCOCC2)cc1NC(=O)CN1C(=O)CN(C)C1=O	3	5	/	3	/	/	/	-23
CCCCn1c(SCCN2CCCCC2)nc2c1c(=O)n(C)c(=O)n2C	-6	-2	/	5	/	/	/	-6
O=C(NCc1ccccc1)c1ccc(=O)oc1	1	4	i	-9	2	7	-3	-18
CC(OC(=O)Nc1cccc(Cl)c1)C(=O)OC1CCCCC1 (centres undefined)	1	0	/	-28	/	/	/	-9
COc1ccccc1C(=O)NNC(=S)NC(=O)c1sc2ccccc2c1Cl	-12	-22	i	10	1	/	17	/
Cc1cc(N2CCOCC2)nc2ccc(NC(=O)CCC(=O)N3CCN(c4ccccc4F)CC3)cc12	1	-7	i	-19	7	-1	-2	-6
O=C(Cn1c(=O)oc2cc(S(=O)(=O)N3CCOCC3)ccc21)N1CCc2ccccc2C1	3	6	/	-3	5	-2	3	-15
O=C1C2C3C=CC(C2C(=O)N1CCCO)C1C2C(=O)N(CCCO)C(=O)C2C31 (centres undefined)	-2	8	i	12	8	5	4	/
COc1cccc(/C=N/NC(=O)CN2CC(c3ccccc3)CC2=O)c1O (centres undefined)	1	-1	i	/	4	58	2	/
C/C(=N\NC(=S)NCc1ccccc1)c1ccc(C#N)cc1	-1	2	/	2	0	-13	-5	/
COc1ccc([N+](=O)[O-])cc1NC(=O)Cc1ccc(C)cc1	1	0	i	24	6	/	-1	/
Cc1cccc(CC(=O)NC2CCCCCC2)c1	3	1	i	-5	6	-2	-1	-5
O=C(Nc1cc(Cl)ccc1-n1cncn1)c1cccc(S(=O)(=O)N2CCOCC2)c1	-1	3	/	-9	/	-6	/	/
COCC(C)n1c(SCc2ccc(C(=O)OC)o2)nc2ccccc2c1=O (centres undefined)	-7	-8	i	/	9	-7	-7	-7
CCOC(=O)C1(Cc2ccc(OC)cc2)CCN(C(=O)Cn2cnnn2)CC1	2	4	i	11	-5	-32	-7	/
Nc1nc(Cl)cc(N2CCOCC2)n1	-1	-4	i	/	4	-6	-6	-1
CCN1C(=O)[C@@H]2[C@@H](c3ccc(SC4CCCCC4)c(OC)c3)N3CCC[C@@]3(C(=O)OC)[C@@H]2C1=O	2	-1	/	0	/	-9	/	-6
CON(c1nc(Cl)nc(N(C)C)n1)S(=O)(=O)c1ccc(C)cc1	-3	3	i	17	-1	-8	7	-7
CCOC(=O)C1CCCN(C(=O)CSc2ccc(NC(C)=O)cc2)C1 (centres undefined)	-1	1	i	-7	1	-7	-6	8
CSCCC(NC(N)=O)C(=O)NCC1CCCCC1 (centres undefined)	1	-1	i	/	-12	/	-3	0
C#CC(CO)N(CCN(Cc1ccccc1)C(C#C)CO)Cc1ccccc1 (centres undefined)	-14	-10	i	/	3	5	4	/
Cn1c2ccccc2c2c(=O)oc3ccccc3c21	-1	-1	/	-164	/	/	/	-7
CCCN(CCC)C1=CC(=[N+]2CCCC2)CC(C)(C)C1	-2	-25	i	48	1	1	0	/
CCOc1ccc(CC(=O)NNC(=O)NC2CCCCC2)cc1	-1	2	i	13	-8	-18	-6	/
CCC(=O)c1cc(F)c(N2CCN(S(=O)(=O)c3ccccc3)CC2)cc1C	-4	-12	i	/	-4	14	-10	-14
NC(=S)Nc1ncc(C(F)(F)F)cc1Cl	-2	-1	i	-18	-3	-3	7	/
COc1ccc(OC)c(NC(=O)C2(C)CCN2CCOc2ccccc2)c1 (centres undefined)	7	-8	/	66*	/	/	/	-7
Cc1ccc(Nc2nc(N)nc(CSc3nccn3C)n2)c(C)c1	4	-2	i	/	10	-11	-5	-10
CCOc1ccc(NC(=O)C2CC(=O)N(CC)C(=Nc3ccc4c(c3)OCO4)S2)cc1 (centres undefined)	-1	-1	i	19	9	17	4	-13
CCOC(=O)c1ccccc1NC(=O)COC	1	5	i	18	3	-8	2	-19
COc1ccc(-c2nnc(SCC(=O)NC3CC3)o2)cc1	4	-2	/	/	/	-24	/	-4
CN1OC[C@@H]2CN(Cc3ccccc3)[C@H](c3cccc(-c4ccccc4)c3)C[C@@H]21	5	-6	/	-1	/	/	/	-8
O=C(NNC1CC(=O)N(c2cccc(Cl)c2)C1=O)c1cccs1 (centres undefined)	/	/	i	8	-5	-13	1	7
N#Cc1ccc(OCc2noc(-c3ccsc3)n2)cc1	0	-2	i	-8	-5	-9	2	-20
CCc1cc(=O)oc2cc(O[C@@H]3O[C@H](CO)[C@@H](O)[C@H](O)[C@H]3O)c(Cl)cc12	-9	-6	i	12	-4	/	-6	-5
C#CC[N+](C)(C)CCCCCCCCC	1	2	i	28	1	42	-2	/
C=CCN1C(=O)C(CC(=O)NCC)SC1=Nc1ccccc1CC (centres undefined)	-1	0	i	3	3	0	-8	7
CCOC(=O)c1c(S(=O)(=O)NCC(=O)Nc2cccc(C)c2C)c(C)n(C)c1C	-3	-1	i	6	/	18	/	9
COc1ccc(O)c(C(=O)c2cnc3c(c2)CN(C)C(=O)N3)c1	-4	-2	i	-37	3	30	-8	/
O=C1/C(=C/c2cccs2)COc2ccccc21	4	2	i	/	-1	5	-10	/
CNC(=O)c1[nH]cnc1C(=O)N[C@@H](CC(C)C)C(=O)OCc1ccccc1	4	-7	i	-14	-1	-1	12	31
O=C(CCn1c(=S)oc2ccccc21)N1CCCCC1	-1	8	i	8	-8	-4	0	/

Not a retest: 17 of the compounds above.
SMILES	MT1-MMP act inh	MT1-MMP act inh RFP	Rce1 inhib	Env fusion inh	PABP polyA inh	CSC inhib	eIF4H inh	UUG fidelity	others
CCOc1ccc(CC(=O)NNC(=O)NC2CCCCC2)cc1	-1	2	i	13	-8	-18	-6	/
CCC(=O)c1cc(F)c(N2CCN(S(=O)(=O)c3ccccc3)CC2)cc1C	-4	-12	i	/	-4	14	-10	-14
NC(=S)Nc1ncc(C(F)(F)F)cc1Cl	-2	-1	i	-18	-3	-3	7	/
COc1ccc(OC)c(NC(=O)C2(C)CCN2CCOc2ccccc2)c1 (centres undefined)	7	-8	/	66*	/	/	/	-7
Cc1ccc(Nc2nc(N)nc(CSc3nccn3C)n2)c(C)c1	4	-2	i	/	10	-11	-5	-10
CCOc1ccc(NC(=O)C2CC(=O)N(CC)C(=Nc3ccc4c(c3)OCO4)S2)cc1 (centres undefined)	-1	-1	i	19	9	17	4	-13
CCOC(=O)c1ccccc1NC(=O)COC	1	5	i	18	3	-8	2	-19
COc1ccc(-c2nnc(SCC(=O)NC3CC3)o2)cc1	4	-2	/	/	/	-24	/	-4
CN1OC[C@@H]2CN(Cc3ccccc3)[C@H](c3cccc(-c4ccccc4)c3)C[C@@H]21	5	-6	/	-1	/	/	/	-8
O=C(NNC1CC(=O)N(c2cccc(Cl)c2)C1=O)c1cccs1 (centres undefined)	/	/	i	8	-5	-13	1	7
N#Cc1ccc(OCc2noc(-c3ccsc3)n2)cc1	0	-2	i	-8	-5	-9	2	-20
CCc1cc(=O)oc2cc(O[C@@H]3O[C@H](CO)[C@@H](O)[C@H](O)[C@H]3O)c(Cl)cc12	-9	-6	i	12	-4	/	-6	-5
C#CC[N+](C)(C)CCCCCCCCC	1	2	i	28	1	42	-2	/
C=CCN1C(=O)C(CC(=O)NCC)SC1=Nc1ccccc1CC (centres undefined)	-1	0	i	3	3	0	-8	7
CCOC(=O)c1c(S(=O)(=O)NCC(=O)Nc2cccc(C)c2C)c(C)n(C)c1C	-3	-1	i	6	/	18	/	9
COc1ccc(O)c(C(=O)c2cnc3c(c2)CN(C)C(=O)N3)c1	-4	-2	i	-37	3	30	-8	/
O=C1/C(=C/c2cccs2)COc2ccccc21	4	2	i	/	-1	5	-10	/

(next part)
SMILES	MT1-MMP act inh	MT1-MMP act inh RFP	Rce1 inhib	Env fusion inh	PABP polyA inh	CSC inhib	eIF4H inh	UUG fidelity	others
COC(=O)N1CCN(c2ccc(C(C)=O)cc2)CC1	3	-1	i	-27	-12	12	-7	5
COc1ccc(N2CCN(C(=O)C3CCN(S(=O)(=O)c4cccs4)CC3)CC2)cc1	-5	-2	i	10	-14	-20	-1	/
O=C(Nc1cccc2c1CCCC2)C1CCCN(S(=O)(=O)c2cccc3nonc23)C1 (centres undefined)	-3	-3	i	/	-9	-4	-13	/
CC(C)(C)CN1C(N)=NC[C@H]1Cc1ccc(O)cc1	-3	3	i	14	3	11	-5	-10
COc1ccc(C)cc1Nc1n[n+](-c2ccccc2)c(-c2cc([N+](=O)[O-])cc(OC)c2O)s1	-6	5	i	/	?	3	?	-15
O=C(COC(=O)Cc1cccc(F)c1)NCCc1ccccc1	-2	0	/	/	/	-2	/	3
Cc1ccc(N2CCN(C(=O)CN3C(=O)c4ccccc4C3=O)CC2)cc1	3	9	i	-84	-5	-12	6	-10
Cc1onc(-c2ccccc2)c1C(=O)Nc1sccc1C#N	1	6	i	-4	?	4	?	-14
COc1cc2c(cc1OC)CN(C(=O)CC1CC3CCC1C3)CC2 (centres undefined)	0	-4	i	-4	12	0	4	5
OCc1ccccc1Cn1ccnc1	8	3	/	1	/	/	/	-12
Cn1c(N)c(NC(=S)NC2CCCCC2)c(=O)n(C)c1=O	-3	3	/	17	/	/	/	-24
Cn1c(N)c(C(=O)COC(=O)COc2ccc(Cl)cc2Cl)c(=O)n(C)c1=O	1	5	/	/	/	3	/	-16
CC(C)(C)c1cc(NS(=O)(=O)c2ccc(Br)s2)no1	-1	1	i	/	5	-10	-7	-8
O=C1Nc2c(c(=O)[nH]c(=O)n2-c2ccccc2F)C(C(F)(F)F)(C(F)(F)F)N1	2	2	i	-7	-5	-15	-9	-15
CC[C@]1(C(=O)OC)[C@H]2C(=O)N(C)C(=O)[C@H]2[C@H]2CN(C)C(=NC)N21	0	4	/	17	/	/	/	-28
Cc1cc(C)cc(N(C(=O)CNC(=O)c2ccco2)C(C(=O)NC2CCCC2)c2cccnc2)c1 (centres undefined)	-1	3	i	/	-4	/	-10	-7

Assay outcomes from PubChem.
